D2 ag = Beta-Arrestin HTS for Positive Allosteric Modulators of the Human D2 Dopamine Receptor: Agonists; activation, % (concentration not given with the values); AID 624465, 2012; hit rate 0.084% among 360,000; D(2) dopamine receptor (Homo sapiens), P14416; DiscoveRx PathHunter D2 beta-arrestin, luminescence, 90 min; 100% = 57 uM dopamine signal; in the data active = activation above about 40%; inconclusive = about 15% to 40%; inactive = below about 15%; note: compound concentration not given in the record; the text of the record calls up to 30% inactive
Target sequence (P14416 whole entry, looked up): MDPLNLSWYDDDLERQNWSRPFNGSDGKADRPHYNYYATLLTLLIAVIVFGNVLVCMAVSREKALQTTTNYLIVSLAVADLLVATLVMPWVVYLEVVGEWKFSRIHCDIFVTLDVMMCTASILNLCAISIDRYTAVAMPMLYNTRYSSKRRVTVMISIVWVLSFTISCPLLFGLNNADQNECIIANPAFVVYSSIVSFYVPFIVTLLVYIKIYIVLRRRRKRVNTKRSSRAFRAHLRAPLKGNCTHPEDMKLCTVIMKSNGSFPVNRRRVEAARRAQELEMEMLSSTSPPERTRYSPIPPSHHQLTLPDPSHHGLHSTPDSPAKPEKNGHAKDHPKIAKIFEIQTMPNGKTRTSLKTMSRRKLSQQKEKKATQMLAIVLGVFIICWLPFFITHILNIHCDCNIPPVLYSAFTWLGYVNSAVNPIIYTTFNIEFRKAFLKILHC
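DiscoveRx PathHunter D2 beta-arrestin cells (2,100/well) attached overnight, then compound-stimulated 90 min at 37 C in HBSS/10 mM HEPES/0.1% Tween-20 buffer; beta-galactosidase complementation read by luminescence after 1 h at ambient temperature. Dopamine 57 uM final (EC100) as control.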
Six1-Eya2 inh = qHTS Assay for Inhibitors of the Six1/Eya2 Interaction | AlphaScreen GST-Six1/His-Eya2 binding, biochemical; active compounds read low; control for the full effect not named in the record | activity change, % (no concentration beside the values) | Homeobox protein SIX1 (Homo sapiens) + Protein phosphatase EYA2 (Homo sapiens), … | hit rate 0.56% among 360,000; in the data active = activity change below about -65%; inconclusive = about -30% to -65%; inactive = above about -30%; note: % is set by controls: 0 for no effect and ±100 for the full control effect
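Homogeneous AlphaScreen proximity assay pairing GST-Six1 with His-tagged Eya2 (added as 5X mix: 250 nM and 500 nM) in 50 mM Tris pH 8.0, 300 mM NaCl, 1 mM TCEP. Glutathione donor and nickel acceptor beads; 1 h, 37 °C, dark.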
CtBP-E1A inh = qHTS Assay for Inhibitors of the CtBP/E1A Interaction | CtBP / adenovirus E1A interaction (AlphaScreen) | AlphaScreen GST-E1A/His-CtBP binding, 1536-well; active compounds read low; control for the full effect not named in the record | activity change, % (no concentration beside the values) | hit rate 0.49% among 340,000; in the data active means activity change below about -65%; inconclusive means about -30% to -65%; inactive means above about -30%; note: % is set by controls: 0 for no effect and ±100 for the full control effect
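Steps: dispense buffer (Tris pH 8.0, NaCl 300 mM, TCEP 1 mM, BSA, Tween 20); add 5X protein mix (GST-E1A, His-CtBP, 125 nM each); pin 23 nL compound; 2 h at 37 °C, dark; add 5X beads (50 ug/mL); 1 h; read.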
gsp ag = qHTS for Agonist of gsp, the Etiologic Mutation Responsible for Fibrous Dysplasia/McCune-Albright Syndrome: qHTS; AID 624287, 2012; Potency, µM (doses to about 76.9 µM), for inactives: top-dose activation (cAMP increase), hits mostly activators; gsp mutant cells, cAMP HTRF, 30 min; control for the full effect not named in the record; hit rate 0.13% among 340,000; active = well fitted activation curve with a large enough effect; inconclusive = small, poorly fitted or top-dose-only effect, or another doubt; inactive = no such curve, though single readings can be large or run the other way; cell line not stated here;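 note: phosphodiesterase inhibitor Ro 20-1724 added with compounds to block cAMP breakdown; potency is the fitted concentration of half-maximal effect; nearly all actives have a fitted effect of over 60% in size; about a fifth of the inactives were tested at one dose only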
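Cells in DMEM/10% FBS with G418 were pretreated with compounds in DMSO plus […] (300 uM stock) for 30 min at 37C. cAMP was measured by HTRF (cAMP-d2 plus anti-cAMP antibody-K) after 30 min at room temperature.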
D2 PAM = Beta-Arrestin HTS for Positive Allosteric Modulators of the Human D2 Dopamine Receptor: Potentiators | DiscoveRx D2 beta-arrestin cells, luminescence, 90 min; 100% = 57 uM dopamine signal | AID 624464, 2012 | D(2) dopamine receptor (Homo sapiens), P14416 | hit rate 0.23% among 360,000 | potentiation, % (test concentration not listed); active = potentiation of 50% or more; inconclusive = 30% to 50%; inactive = 30% or less;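 note: compound concentration not given in the record; tested on top of an EC20 dose of dopamine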
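PathHunter D2 cells, attached overnight at 37 deg C, received compound in DMSO plus dopamine at EC20 (50 nM final) for 90 min at 37 deg C. Beta-arrestin recruitment was read as luminescence after 1 h with detection reagent at ambient temperature.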
gsp antag = qHTS for Antagonists of gsp, the Etiologic Mutation Responsible for Fibrous Dysplasia/McCune-Albright Syndrome: qHTS; gsp-mutant cells, cAMP HTRF, 30 min; control for the full effect not named in the record; Potency, µM (titrated, usually from 76.9 µM), for the others: top-dose activity change, negative = inhibition, most hits filed as inhibitors; hit rate 0.4% among 340,000; AID 624288, 2012; active = falling curve of any shape with a large fitted effect; inconclusive = falling curve, mostly with a smaller effect; inactive = flat or rising curve; cell line not stated here;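 note: intracellular cAMP measured with PDE inhibitor Ro 20-1724 present during compound exposure; potency is the fitted concentration of half-maximal effect; % is set by controls: 0 for no effect and ±100 for the full control effect; nearly all actives have a fitted effect of over 65% in size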
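HTRF cAMP read-out (cAMP-d2 plus anti-cAMP antibody-K in lysis buffer, 30 min RT). Before lysis, cells are exposed to compounds with […] for 30 min at 37C in DPBS containing Ca/Mg, BSA and Tween 20.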
Active calls of the source: *; u = inconclusive; x = no result given; [ ] = another dose, or the depositor's remark.

nr	canonical_smiles	D2 ag	Six1-Eya2 inh	CtBP-E1A inh	gsp ag	D2 PAM	gsp antag
1	Cc1cccc(NNC(=S)Nc2ccccc2)c1	-2.5	-15	-2	-34%[inhibitor]	-29	x
2	CCOC(=O)c1nc(C)sc1-c1ccnn1S(=O)(=O)c1ccc(Cl)cc1Cl	-4.2	2	0	10%[15.4 µM]	-4	-20%
3	COc1cc(OC)c(NS(=O)(=O)c2cc(Br)cnc2N)cc1Cl	-1.7	2	-4	27%	-6	-12%
4	CCOc1cc(S(=O)(=O)NCCCn2ccnc2)ccc1Cl	-2.9	-1	-2	u	3	2%
5	COc1cccc(Nc2cc(C)nc3nc(C)nn23)c1	1.2	1	0	-29%	0	-3%
6	COc1cccc(N/C=C/C(=O)c2ccc(Br)cc2)c1	-1.9	17	33	0%	1	11%
7	COc1ccccc1C(=O)NNC(=O)c1cccc(F)c1	-1.7	5	-2	-5%[15.4 µM]	-4	6%
8	O=C(O)CCCCn1c(SCc2cc(=O)n3cc(Cl)ccc3n2)nc2ccsc2c1=O	0.7	-3	1	u	-11	14%
9	CCn1c(CSCc2ccc(C)cc2)n[nH]c1=S	-4.9	4	x	-19%	-17	-10%
10	COc1cc(CNC[C@H]2O[C@@H](n3ccc(N)nc3=O)[C@H](O)[C@@H]2O)ccc1OCc1ccc(C)cc1	-9.2	1	-3	-22%	1	x
11	Cc1sc2ncn(CC(=O)NCCCN3CCC(C)CC3)c(=O)c2c1S(=O)(=O)N1CCC(C)CC1	3.1	7	0	0%	-6	13%
12	COc1ccc(OC)c(CCNC(=O)CC2Oc3ccc(C)cc3NC2=O)c1 (centres undefined)	-1.2	-11	0	3%	-3	2%
13	CCCCCCOc1ccc(C(=O)n2cnc(N)n2)cc1	1.3	-1	7	7%	0	12%
14	Cc1oc2cc3oc(=O)c4c(c3cc2c1C)CCC4	-2.5	1	5	3%	-4	11%
15	COC(=O)c1[nH]c2ccc(Cl)cc2c1NC(=O)Oc1ccccc1	8.1	-4	-5	0%	68*	u
16	CCN(CC)S(=O)(=O)c1cccc(-c2nnc(SCC(=O)c3ccc(Cl)s3)n2C)c1	-2.6	0	-1	1%	-8	-20%
17	Cc1cc(C(=O)N2CCCC(Nc3ccc(C(C)C)cc3)C2)nn1C (centres undefined)	-3.2	-15	-13	24%	-6	-20%
18	CN(C(=O)COc1cc(=O)n(C)c2ccccc12)c1cccc(Cl)c1	0.5	-3	-1	-11%	6	-8%
19	NC(=O)C1CCN(CC(=O)Nc2cc(Cl)ccc2Oc2ccccc2)CC1	-4.5	-1	1	-4%	-10	-12%
20	CC12CN(Cc3ccccc3)CC(C)(CN(Cc3ccccc3)C1)C2=O	0.9	-4	7	-32%[inhibitor]	-8	-2%
21	Cc1ccc(S(=O)CCNC(=O)Cc2ccc(Cl)cc2)cc1 (centres undefined)	-3.9	1	3	-1%	-5	-4%
22	COc1cc(C2C3=C(CC(C)(C)CC3=O)N(C)C3=C2C(=O)CC(C)(C)C3)ccc1O	1.9	-3	0	-23%	1	-1%
23	Cc1ccc(N2C(=O)N(CC(=O)Nc3cccc(C)c3C)C(=O)C2C)cc1 (centres undefined)	-0.3	8	7	-1%	-6	-8%
24	CC(C)(C)c1ccc(CN(Cc2ccccc2)C(c2ccccn2)c2nnnn2C(C)(C)C)cc1 (centres undefined)	-4.3	0	-4	u	0	-19%
25	O=C(Nc1cccc(Cl)c1)Nn1cnnc1	-3.2	21	1	13%	-10	-19%
26	CCOC(=O)c1cccc(NC(=O)CSc2nnc(C3CCCCC3)n2CC)c1	1.9	2	-6	0%	-3	-16%
27	COc1ccc(OCCN2CCC(C(=O)NC(c3ccc(F)cc3)c3ncccc3C)CC2)cc1 (centres undefined)	-3.2	-16	-12	x	-16	x
28	CCOc1ccc(C2CC(=O)n3nc(C45CC6CC(CC(C6)C4)C5)nc3S2)cc1OC (centres undefined)	-2.5	1	7	-7%	4	-7%
29	CCOC(=O)CN(C(=O)CNC(=O)c1ccco1)C(C(=O)NC1CCCCC1)c1cccs1 (centres undefined)	-1.5	4	3	1%	1	-6%
30	CC1(C)Cc2nc(N3CCCC3)c(C#N)cc2CO1	-1.1	14	-10	-17%[15.4 µM]	-27	x

Structures shown so far that have a Cl atom, in the order listed:
nr	canonical_smiles	D2 ag	Six1-Eya2 inh	CtBP-E1A inh	gsp ag	D2 PAM	gsp antag
2	CCOC(=O)c1nc(C)sc1-c1ccnn1S(=O)(=O)c1ccc(Cl)cc1Cl	-4.2	2	0	10%[15.4 µM]	-4	-20%
3	COc1cc(OC)c(NS(=O)(=O)c2cc(Br)cnc2N)cc1Cl	-1.7	2	-4	27%	-6	-12%
4	CCOc1cc(S(=O)(=O)NCCCn2ccnc2)ccc1Cl	-2.9	-1	-2	u	3	2%
8	O=C(O)CCCCn1c(SCc2cc(=O)n3cc(Cl)ccc3n2)nc2ccsc2c1=O	0.7	-3	1	u	-11	14%
15	COC(=O)c1[nH]c2ccc(Cl)cc2c1NC(=O)Oc1ccccc1	8.1	-4	-5	0%	68*	u
16	CCN(CC)S(=O)(=O)c1cccc(-c2nnc(SCC(=O)c3ccc(Cl)s3)n2C)c1	-2.6	0	-1	1%	-8	-20%
18	CN(C(=O)COc1cc(=O)n(C)c2ccccc12)c1cccc(Cl)c1	0.5	-3	-1	-11%	6	-8%
19	NC(=O)C1CCN(CC(=O)Nc2cc(Cl)ccc2Oc2ccccc2)CC1	-4.5	-1	1	-4%	-10	-12%
21	Cc1ccc(S(=O)CCNC(=O)Cc2ccc(Cl)cc2)cc1 (centres undefined)	-3.9	1	3	-1%	-5	-4%
25	O=C(Nc1cccc(Cl)c1)Nn1cnnc1	-3.2	21	1	13%	-10	-19%

(further entries)
nr	canonical_smiles	D2 ag	Six1-Eya2 inh	CtBP-E1A inh	gsp ag	D2 PAM	gsp antag
31	O=C(c1ccc(-c2ccccc2Cl)o1)N1CCN(S(=O)(=O)c2cccs2)CC1	-4.4	-2	-20	-29%	-9	-22%
32	COc1ccc(OC2(C)CCN(Cc3ccccc3OC(F)F)C2)cc1 (centres undefined)	-1.3	-4	2	x	-19	x
33	Cc1nn2c(-c3ccncc3)ccnc2c1Cl	-1.3	0	1	-1%[15.4 µM]	-9	6%
34	O=C(Nc1cccc(C(F)(F)F)c1)c1scc2c1OCCO2	-1.8	4	10	-9%[15.4 µM]	-1	3%
35	O=C(c1cc(C(=O)N2CCOCC2)c2nc3ccccc3n2c1)c1ccccc1O	-3.6	4	x	25%	-14	-10%
36	O=C(O)c1cc(S(=O)(=O)NC(Cc2c[nH]c3ccccc23)C(=O)O)ccc1Cl (centres undefined)	-1.0	0	x	-2%	-9	3%
37	O=C(COC(=O)C1CC1)NCCc1ccc(Cl)cc1	-4.6	6	-1	3%[15.4 µM]	-1	3%
38	O=C(NCC1CCCO1)c1nn2c(C(F)(F)F)cc(-c3cccs3)nc2c1Cl (centres undefined)	-3.1	-10	19	-6%[15.4 µM]	-13	4%
39	CC(=O)c1ccc(Oc2ncnc3sccc23)cc1	-4.1	1	u	-1%[15.4 µM]	-10	13%
40	O=C(COc1ccc(S(=O)(=O)N2CCOCC2)cc1)N1CCCCCC1	-2.4	9	11	-4%[15.4 µM]	-1	10%
41	O=C(COc1cccc2cccnc12)NCc1cccs1	-0.2	-12	-18	8%	-1	-3%
42	CC(OC(=O)c1nsc(Cl)c1Cl)C(=O)NC1CCCCC1 (centres undefined)	u	10	7	19%	-7	6%
43	COc1ccc(-c2[nH]c(-c3ccc(C)cc3)nc2SCC(=O)Nc2nccs2)cc1	0.0	-14	-12	0%	-21	-14%
44	O=C(Cc1ccccc1)NCC(=O)N/N=C/c1cccs1	-4.0	-13	0	u	3	1%
45	COc1cccc(CSc2nnc(CSc3nc4nc(C)cc(C)n4n3)s2)c1	2.2	u	u	-7%	-7	-17%
46	CC(C)[C@H](CO)NC(=O)[C@H]1O[C@@H](n2ccc(=O)[nH]c2=O)[C@H](O)[C@@H]1O	-3.0	5	11	x	-2	x
47	CCO[C@H]1OC(C(=O)N2CCOCC2)=C[C@@H](c2cn(C(C)=O)c3ccccc23)[C@@H]1CCCO	-1.7	2	-1	-28%	-6	-6%
48	O=c1oc2ccccc2cc1-c1csc(Nc2ccc(O)cc2)n1	8.8	-26	-25	4%[15.4 µM]	0	u
49	O=C(Nc1cccnc1)C1CC(=O)N(c2ccc(F)cc2)C1 (centres undefined)	-2.1	-3	1	-29%	-6	4%
50	Cc1ccc(S(=O)(=O)N2CCN(Cc3cc(=O)n4ccccc4n3)CC2)cc1C	-2.6	-13	-14	u	1	5%
51	O=C(NC1CC1)C1CCN(C2CCN(C(=O)c3ccc4cccc(F)c4n3)CC2)CC1	-2.2	-7	2	-2%[15.4 µM]	-4	16%
52	COC(=O)CSc1nnc(SCc2ccc(Cl)cc2)s1	-1.7	16	23	-20%	8	-19%
53	Cc1ccc(NC(=O)C2CCN(C(=O)NC3CCCCC3)CC2)cc1	-1.0	5	1	-33%	-13	7%
54	O=C(Nc1nnc(-c2cccc(F)c2)s1)Nc1ccccc1F	-2.7	1	-17	-5%	-3	4%
55	CC[C@@H]1C/C=C\Cc2ccccc2[C@H](C(=O)C[C@@H](O)CC(C)=O)OC1=O	0.1	4	2	x	-45	0%
56	Cc1ccc(NC(=O)Nc2cccc([N+](=O)[O-])c2)cc1F	-7.5	-3	-6	-3%[15.4 µM]	-12	u
57	CCC(C)(C)n1nnnc1C(c1ccncc1)N1CCC(Cc2ccccc2)CC1 (centres undefined)	-0.9	-13	-2	-56%[inhibitor]	-3	-13%
58	CCCc1nc(SCC(=O)Nc2nnc(SCC)s2)c2c(=O)n(C)c(=O)n(C)c2n1	7.8	3	-1	-18%	-1	4%
59	Cc1ccc(Nc2nc3ccccc3n3nnnc23)cc1	0.5	6	-2	-31%[15.4 µM]	11	-3%
60	Cc1cc(=O)oc2cc(OCC(=O)N3CCN(c4ccc(F)cc4)CC3)ccc12	-5.1	-21	x	-2%	-8	-26%

Screening results (PubChem)
